# MbtI inh – blocks the Mycobacterium tuberculosis siderophore enzyme MbtI | P9WFX0 | purified MbtI enzyme, fluorescence intensity read-out | inhibition, %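 (about 17 µg/mL by stock and volumes)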 | 100,000 compounds, 0.89% hits | AID 493033;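 active means above 50% in both replicates, above 80% if mildly self-fluorescent; inactive means the rest, strongly fluorescent compounds included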;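 further: 0% = mean of negative and 100% = mean of positive controls; one replicate is shown; some compounds called inactive have numbers as strong as hits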
# PV pol inh – inhibitors of poliovirus RNA polymerase binding and polymerization. P03300. poliovirus polymerase elongation, fluorescence polarization; active compounds read low. 150,000 compounds, 0.66% hits. % elongation, % (compound at 16.7 µg/mL); in the data active means % elongation below about 90%; further: some results filed as inactive read as strong as hits
# Target sequence (P03300 1749-2209 limits assumed): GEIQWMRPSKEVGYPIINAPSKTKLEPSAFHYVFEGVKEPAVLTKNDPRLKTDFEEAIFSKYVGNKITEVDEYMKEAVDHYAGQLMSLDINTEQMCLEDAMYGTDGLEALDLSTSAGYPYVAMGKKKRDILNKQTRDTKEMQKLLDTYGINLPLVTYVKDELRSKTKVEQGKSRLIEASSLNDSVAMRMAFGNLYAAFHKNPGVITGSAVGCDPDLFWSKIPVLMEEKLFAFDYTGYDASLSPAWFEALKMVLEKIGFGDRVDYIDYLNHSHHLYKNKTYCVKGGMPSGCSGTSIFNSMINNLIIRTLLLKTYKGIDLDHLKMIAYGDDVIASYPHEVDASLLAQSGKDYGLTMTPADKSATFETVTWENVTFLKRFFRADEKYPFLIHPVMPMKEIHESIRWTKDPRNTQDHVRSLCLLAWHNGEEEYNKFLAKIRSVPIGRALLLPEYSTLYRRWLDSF
# Mtb MenB inh – blocks the Mycobacterium tuberculosis MenB enzyme; P9WNP5; MenB enzyme assay, absorbance read-out; some hits fall short of the stated cut; inhibition, %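 (about 12 µg/mL by stock and volumes)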; 100,000 compounds, 0.43% hits; AID 540299;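 active means mean of two replicates above 30%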;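 further: 0% = no compound and 100% = wells with inactive enzyme; the first replicate is given; strong numbers were not always called active; inactives centre near -10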
# Target sequence (P9WNP5 whole entry, looked up): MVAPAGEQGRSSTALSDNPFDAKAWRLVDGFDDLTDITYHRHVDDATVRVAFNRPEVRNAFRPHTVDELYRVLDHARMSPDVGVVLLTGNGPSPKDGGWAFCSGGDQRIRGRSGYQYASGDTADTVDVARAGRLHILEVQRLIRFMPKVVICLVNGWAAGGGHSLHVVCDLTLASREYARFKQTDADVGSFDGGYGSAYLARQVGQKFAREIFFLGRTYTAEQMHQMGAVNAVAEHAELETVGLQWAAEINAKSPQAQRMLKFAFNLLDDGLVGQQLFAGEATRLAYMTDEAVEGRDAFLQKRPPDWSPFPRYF
# PV pol inh intensity – second read-out of PV pol inh, no call of its own (marks repeat the call); % elongation; measured here: total intensity read-out; formula for this scale not given here;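 total fluorescence in place of polarization; lower means less elongation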
# * = called active by the depositor; i = inactive; . = no result given; & = joins results of further samples. Outcome played no part in choosing rows; 1.8% or so of the library scored in one or more.
no.	Compound	MbtI inh	PV pol inh	PV pol inh intensity	Mtb MenB inh
1	COC(=O)CNS(=O)(=O)c1ccsc1C(=O)OC	-5.8	104.0	108.0	-3.3
2	COc1cccc(N2C(=O)CC(n3nc(Nc4cccc(C)c4)sc3=S)C2=O)c1 (configuration not stated)	98.8*	101.0	96.0	-0.1
3	Cc1ccc(S(=O)(=O)N=P(Oc2ccccc2)(c2ccc(C)o2)C(C)(C)C)cc1 (configuration not stated)	8.2	105.0	103.0	-12.1
4	CC(C)(C)NS(=O)(=O)c1cc(C(=O)Nc2nccs2)ccc1Cl	-5.7	102.0	111.0	-8.6
5	CC(=O)Nc1ccc(NC(=O)c2ccc(NC(C)=O)cc2)cc1	8.9	102.0	110.0	-17.5
6	Cc1nc(SCc2noc(CSc3nc(C)c(C)c(C)c3C#N)n2)c(C#N)c(C)c1C	.	103.0	91.0	-10.8
7	CC(=O)N[C@@H](CSC/C=C(\C)CC/C=C(\C)CCC=C(C)C)C(=O)O	-18.9&-19.0	100.0&99.0&100.0&101.0	102.0&104.0&101.0&102.0	7.3&-12.6
8	CCn1c(=O)c2cc(S(N)(=O)=O)ccc2n(CC)c1=O	10.6	102.0	103.0	-10.6
9	CCN1CCN(C(=O)c2ccc(Cl)nc2)CC1	-9.4	103.0	93.0	.
10	C=CCN1C/C(=c2\sc3nc(-c4ccccc4OC(C)=O)nn3c2=O)c2ccccc21	-11.4	98.0	97.0	-39.8
11	CCCN(CCC)C(=O)Cn1c(SCc2cccc(C)c2)nc2ccncc21	1.4	104.0	102.0	-9.9
12	CCc1ccc2nc3n[nH]c(N)c3cc2c1	1.2	100.0	105.0	-42.3
13	Cc1ccc(OCC(O)Cn2cnc3ccccc32)cc1 (configuration not stated)	5.1	101.0	100.0	6.1
14	CNC(=O)c1cc(S(=O)(=O)N2CCCC2)ccc1Cl	-9.2	101.0	104.0	11.1
15	Cc1ccc2nc(Cn3cnc4ccccc43)cc(=O)n2c1	85.3	106.0	121.0	-7.1
16	COc1cc(NC(=S)N(C)C)c(OC)cc1Cl	-5.7	98.0	98.0	6.8
17	CN(C)S(=O)(=O)c1cc(S(=O)(=O)c2ccc(Cl)c(S(=O)(=O)N(C)C)c2)ccc1Cl	-5.6	102.0	104.0	7.2
18	COc1ccc(N2C(=O)c3ccc(Oc4ccccc4)cc3C2=O)cc1	-2.1	105.0	112.0	-14.2
19	CCC(C)c1ccc(NC(=O)C2CC=CCC2C(=O)O)cc1 (configuration not stated)	.	96.0	95.0	-3.8
20	Cc1cc(=O)n(Cc2ccccc2)[nH]1	-3.6	99.0	100.0	.
21	NC(=O)C1(S(=O)(=O)c2ccccc2)CCCCC1	-7.1	103.0	100.0	-31.6
22	CCOc1ccc(CN(C)C(C)C(=O)NCc2ccccc2)cc1 (configuration not stated)	-5.2	103.0	106.0	-34.3
23	O=C(NCCSc1ccccc1)c1ccc(Br)cc1	.	103.0	107.0	-13.4
24	Cc1n[nH]c(C)c1Cc1ccc(C(=O)O)o1	0.5	103.0	105.0	-19.8
25	CC(C)(CNS(=O)(=O)c1ccc(Cl)cc1)OCc1ccccc1	-5.9	102.0	99.0	.
26	CCOc1ccc2nc(NC(NC(=O)CC)(C(F)(F)F)C(F)(F)F)sc2c1	.	103.0	104.0	-15.2
27	CCS(=O)(=O)N1CCN(S(=O)(=O)c2ccc(Cl)cc2)CC1	-22.0	104.0	101.0	-12.1
28	O=C(CCCOc1ccccc1)NC1CCCCC1	.	104.0	107.0	-3.2
29	COc1ccc(NC(=O)c2cc(-c3ccc(C)o3)nc3ccccc23)cc1OC	40.5	99.0	106.0	-9.6
30	CN(C)S(=O)(=O)c1cccc(C(=O)NCC(=O)NC2CCN(Cc3ccccc3)CC2)c1	-3.3	114.0	110.0	-15.7
31	Cc1ccc(-c2c3c(=O)n(C)c(=O)n(C)c3cn2C)cc1	33.1	103.0	99.0	-7.9
32	CCCOC(=S)NC1OCC(O)C(O)C1O (configuration not stated)	.	109.0	106.0	-2.3
33	Cc1ccc2oc(=O)c3cc(C(=O)NCCCN4CCN(C)CC4)sc3c2c1	14.0	100.0	103.0	-23.9
34	O=S(=O)(c1ccc(-c2ccccn2)s1)N1CCC2(CC1)OCCO2	-5.1	105.0	116.0	-8.1
35	COc1ccc(C2=NN(C(=O)CSc3ccccc3)C(c3ccco3)C2)cc1 (configuration not stated)	11.1	101.0	94.0	0.3
36	Nc1ccc2c(C(F)(F)F)cc(C(F)(F)F)nc2n1	108.3	103.0	98.0	-12.1
37	CCOc1ccc(Br)cc1C(=O)N/N=C/c1ccco1	30.8	102.0	102.0	-27.4
38	c1csc(-c2nc(-c3c[nH]c4ccccc34)cs2)c1	-15.3	106.0	126.0	-10.1
39	COc1ccc(CCN(C)C(=O)CSc2nncs2)cc1OC	23.1	.	.	-5.5
40	Cc1ccccc1-n1c(C)nnc1SCC(=O)N(Cc1ccccc1)C(C)C	3.4	103.0	105.0	-12.7
41	Oc1c(I)cc2oc3c(c2c1C=NCc1ccncc1)CCCC3	32.3	114.0	124.0	-36.3
42	CSc1sc(=O)sc1SC	-0.7	101.0	104.0	-12.7
43	CC1CN(C)C(C)C/C1=N/O (configuration not stated)	-7.7	99.0	102.0	3.4
44	O=S(=O)(c1ccc2oc3ccccc3c2c1)N1CCOCC1	.	106.0	101.0	-23.1
45	CC(C)NCC(O)c1ccc(O)c(O)c1 (configuration not stated)	-10.0&-13.8&-14.4	99.0&102.0&101.0	102.0&100.0&102.0	-0.3&-10.3&1.7
46	CC(NC(=O)Nc1ccc(Cl)cc1)c1nc(-c2cccnc2)n[nH]1 (configuration not stated)	-0.3	100.0	101.0	14.6
47	C=CCOC(=O)COc1ccc2c(CC)cc(=O)oc2c1	i	100.0	100.0	-19.1
48	CN(C)C(=O)CCc1cc(C(C)(C)C)c(O)c(C(C)(C)C)c1	-20.8	102.0	103.0	-50.5
49	CCOC(=O)c1c(C)oc2c1c(CN1CCN(c3ccccc3F)CC1)c(O)c1ccccc12	4.2	102.0	105.0	-15.4
50	O=C(O)c1cc(NCc2ccccc2)ccc1N1CCOCC1	40.6	101.0	105.0	0.6
51	CCCn1c(=O)n(C)c(=O)c2c(SCC(=O)Nc3cccc(OC)c3)nc(C(C)C)nc21	5.1	103.0	96.0	16.2
52	O=C1OC(CN2CCOCC2)CN1N=Cc1ccc([N+](=O)[O-])o1 (configuration not stated)	-4.7	100.0	100.0	-8.6
53	CSc1ccccc1NC(=O)C1Cc2ccccc2O1 (configuration not stated)	-7.2	108.0	105.0	4.2
54	CC1=Nc2c(c(C)nn2-c2ccccc2)C(C(F)(F)F)(C(F)(F)F)O1	-15.0	102.0	96.0	.
55	CC(C)c1nc(C#N)c(NCc2cccnc2)o1	-8.2	105.0	96.0	-27.9
56	Cc1ccc(C(CNS(=O)(=O)c2ccc(F)cc2C)N2CCN(C)CC2)cc1 (configuration not stated)	-12.2	105.0	108.0	-33.5
57	CC(C)c1ccc(NCC(O)COc2ccc(Cl)c(Cl)c2)cc1 (configuration not stated)	-3.8	111.0	107.0	-16.5
58	CN(Cc1ccccc1)C(=O)COc1cc(=O)n(C)c2ccccc12	2.9	102.0	103.0	-19.1
59	CCN1CCC(N(Cc2ccco2)C(=O)NC2CCCC2)CC1	-0.2	104.0	98.0	-21.8
60	Cc1occc1C(=O)Oc1ccc(C(=O)c2ccccc2)cc1	-4.4	106.0	103.0	-24.1

# Additional compounds follow.
no.	Compound	MbtI inh	PV pol inh	PV pol inh intensity	Mtb MenB inh
61	CC1(C)CN2C(=S)N(c3ccccc3)C(c3ccccc3)N2C1 (configuration not stated)	.	108.0	109.0	-19.7
62	CN(C(=O)C1CC1)c1nnc(-c2ccc(F)cc2)s1	3.5	99.0	103.0	11.8
63	COc1cc(C(=O)Oc2cccc(C)c2C)cc(OC)c1OC	-10.1	102.0	101.0	-54.5
64	O=C(O)C(Cc1c[nH]c2ccccc12)NC(=O)C12CC3CC(CC(C3)C1)C2 (configuration not stated)	.	110.0	106.0	-3.1
65	Cn1c(C(=O)NCCN2CCOCC2)cc2c(=O)n(C)c3ccccc3c21	114.5	98.0	101.0	-5.3
66	O=C(CSc1cn(Cc2ccccc2)c2ccccc12)NCc1ccco1	4.6	100.0	101.0	-13.4
67	CCN(C(=O)c1cccc(Cl)c1)C1CCCCC1	-6.1	103.0	101.0	1.0
68	CCn1c(=O)cc(C(=O)OC)sc1=Nc1ccc(F)c(F)c1	8.8	102.0	103.0	-12.1
69	CCOc1ncnc2c1sc1nc3c(cc12)COC(C)(C)C3	30.4	103.0	100.0	-11.0
70	CCCCN=Cc1c(O)n(Cc2ccccc2)c(=O)[nH]c1=O	15.4	101.0	103.0	-18.8
71	CCc1ccc(-c2nc(CSCC(=O)NCCc3ccccc3)c(C)o2)cc1	-2.3	103.0	108.0	-34.3
72	O=C(Cc1cccc2ccccc12)NCC1CCCO1 (configuration not stated)	.	107.0	109.0	-7.0
73	CCOC(=O)c1c(NC(=S)N2CCOCC2)sc(C)c1C	-7.0	101.0	108.0	6.0
74	CCOC(=O)Cc1nn[nH]n1	.	103.0	101.0	-6.7
75	O=C(NCC1COc2ccccc2O1)C1CCCN(C(=O)c2ccc(Cl)cc2)C1 (configuration not stated)	-12.8	101.0	104.0	-13.6
76	Cn1cc(C(=O)O)c(=O)c2ccccc21	1.5	103.0	104.0	-22.8
77	O=c1oc2ccccc2c(O)c1C=Nc1ccccc1	3.2	102.0	105.0	8.2
78	CC(=O)NC1C(Sc2ccccc2)OC(CO)C(O)C1O (configuration not stated)	2.7	104.0	109.0	-17.5
79	COc1ccccc1-c1noc(CCC(=O)Nc2cc(C(F)(F)F)ccc2Cl)n1	-12.6	101.0	103.0	-12.3
80	CN1CCN(CCCNC(=O)c2cn(C)c(=O)c3c2c2ccccc2n3C)CC1	116.5	102.0	103.0	-18.0
81	O=c1oc2cc3occ(-c4ccccc4)c3cc2c2c1CCC2	-2.0	100.0	96.0	2.2
82	CCN(CC)S(=O)(=O)c1ccc(N2CC(C(=O)N3CCOCC3)CC2=O)cc1 (configuration not stated)	-9.5	105.0	108.0	-27.5
83	O=C(COC(=O)c1cc(O)c(O)c(O)c1)c1ccc(C2CCCCC2)cc1	-0.1	111.0	113.0	-45.9
84	O=C(NCCc1ccccc1)c1ccc(CS(=O)c2cccc(Cl)c2)o1 (configuration not stated)	-6.0	101.0	102.0	-5.8
85	CCOC(=O)C1=C(C)N=C2c3ccccc3C(=O)C2C1c1ccc(Br)cc1 (configuration not stated)	-1.9	101.0	103.0	-13.1
86	Cc1ccc(CN(C)C(=O)Cc2ccc3c(c2)OCCO3)o1	49.8	109.0	110.0	-16.0
87	O=C(NCCc1ccncc1)NC1CCCCC1	.	102.0	108.0	0.8
88	CCCN1CCC(NCc2cccc(C(F)(F)F)c2)CC1	-3.5	98.0	102.0	-21.8
89	CC1CCN(CCCNC(=O)c2ccc(/C=C3\Oc4ccccc4NC3=O)cc2)CC1	-123.0	96.0	96.0	4.8
90	COc1ccc(CCN(C)c2ccc(S(=O)(=O)N(C(C)C)C(C)C)cn2)cc1OC	-157.3	104.0	99.0	-32.8

# Entries above containing fluorine, in the order listed:
no.	Compound	MbtI inh	PV pol inh	PV pol inh intensity	Mtb MenB inh
26	CCOc1ccc2nc(NC(NC(=O)CC)(C(F)(F)F)C(F)(F)F)sc2c1	.	103.0	104.0	-15.2
36	Nc1ccc2c(C(F)(F)F)cc(C(F)(F)F)nc2n1	108.3	103.0	98.0	-12.1
49	CCOC(=O)c1c(C)oc2c1c(CN1CCN(c3ccccc3F)CC1)c(O)c1ccccc12	4.2	102.0	105.0	-15.4
54	CC1=Nc2c(c(C)nn2-c2ccccc2)C(C(F)(F)F)(C(F)(F)F)O1	-15.0	102.0	96.0	.
56	Cc1ccc(C(CNS(=O)(=O)c2ccc(F)cc2C)N2CCN(C)CC2)cc1 (configuration not stated)	-12.2	105.0	108.0	-33.5
62	CN(C(=O)C1CC1)c1nnc(-c2ccc(F)cc2)s1	3.5	99.0	103.0	11.8
68	CCn1c(=O)cc(C(=O)OC)sc1=Nc1ccc(F)c(F)c1	8.8	102.0	103.0	-12.1
79	COc1ccccc1-c1noc(CCC(=O)Nc2cc(C(F)(F)F)ccc2Cl)n1	-12.6	101.0	103.0	-12.3
88	CCCN1CCC(NCc2cccc(C(F)(F)F)c2)CC1	-3.5	98.0	102.0	-21.8

# Further records.
entry	Compound	MbtI inh	PV pol inh	PV pol inh intensity	Mtb MenB inh
91	NS(=O)(=O)c1cc(Cl)c(Cl)c(S(N)(=O)=O)c1	0.4	100.0	100.0	-4.4
92	COC(=O)c1sc(S(=O)(=O)N2CCCC2)c(C(=O)OC)c1C	-2.6	102.0	101.0	-3.9
93	COc1nc(OC)nc(N2CCN(c3ccccc3F)CC2)n1	5.2	101.0	101.0	-17.2
94	Cc1nn(C2CCS(=O)(=O)C2)c2nc(C3CC3)cc(C(=O)OCC#N)c12 (configuration not stated)	59.7	98.0	99.0	-2.5
95	Cc1cc(NC(=O)Cc2cccc(C(F)(F)F)c2)n(-c2ccccn2)n1	-2.8	103.0	108.0	.
96	O=c1c2ccccc2nnn1COc1cccc(Cl)c1	-8.4	106.0	100.0	-14.8

# High-throughput results as filed in PubChem.
